From PubChem
miR-21 FLuc: raises the signal of a miR-21 reporter | AID 2288 | 340,000 tested, under 10 active | Potency, µM (series often up to 38.3 µM), inactives show top-dose reporter change, positive = more light | HeLa miR-21 FLuc reporter, luciferase, 48 h; active = well fitted rising curve with a large enough effect; inconclusive = small, poorly fitted or top-dose-only effect; inactive = no such curve, though single readings can be large or run the other way;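 also: % of control where 0% means no effect; miR-21 action dims this reporter so a rising signal means less miR-21 action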
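Compounds were titrated across several concentrations (up to approximately 40 uM) and incubated 48 hours with HeLa miR-21-FLuc reporter cells (miR-21 target sequence downstream of FLuc, endogenous miR-21). Readout was firefly luciferase luminescence after lytic detection reagent.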
GLA inh pH 4.5: blocks human alpha-galactosidase A at pH 4.5. P06280. purified enzyme, 4-MU-alpha-Gal fluorescence, pH 4.5. activity change, negative = inhibition, % at 105 µM. 230,000 tested, under 10 active; inconclusive = small, poorly fitted or top-dose-only inhibition, or a rising curve; inactive = flat fitted curve, though single readings scatter; no compound was filed as active;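 also: 0% = full activity with enzyme and -100% = basal without enzyme; dose as in the result columns while the protocol names 77 µM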
Rango dissoc inh: inhibitors of RanGTP-induced Rango-importin beta complex dissociation; O95149+P62826; Biochemical FRET Rango-importin beta, RanGTP-induced dissociation; Potency, µM (doses to about 46.1 µM), for inactives: at the highest dose activity change, negative = inhibition; 340,000 compounds, 0.071% hits; AID 540253; active means falling FRET ratio curve, often poorly fitted, with flat reads before Ran was added; inconclusive means other falling curves, or compound fluorescence or quenching; inactive means flat or rising ratio curve;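 also: potency is read from the fitted curve at half-maximal effect; % of control where 0% means no effect; nearly all actives have a fitted effect of over 45% in size; -100% = wells without RanGTP and RCC1; the record marks most hits as doubtful in a second field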
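FRET read at 45 min, room temperature: inhibitors block the CFP/YFP signal rise when RanGTP (0.6 uM Ran, 2 mM GTP, 0.2 uM RCC1) frees Rango (0.1 uM) from importin beta (0.25 uM). Pre-read after 5 min compound exposure flags interference.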
Rango-impB inh: Rango-importin beta binding inhibition. 340,000 compounds, 0.031% hits. Rango CFP/YFP FRET sensor + importin beta, 45 min. Q14974. Potency, µM (top dose mostly 92.2 µM), for the others: at the top dose inhibition of complex formation. AID 540263; active = rising FRET ratio curve, often small or poorly fitted; inconclusive = mostly compound fluorescence or quenching in the first reads; inactive = flat curves in all reads;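 also: potency is read from the fitted curve at half-maximal effect; 0% = DMSO wells and 100% = buffer wells lacking importin beta; nearly all actives have a fitted effect of over 15% in size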
Target sequence (Q14974 whole entry, looked up): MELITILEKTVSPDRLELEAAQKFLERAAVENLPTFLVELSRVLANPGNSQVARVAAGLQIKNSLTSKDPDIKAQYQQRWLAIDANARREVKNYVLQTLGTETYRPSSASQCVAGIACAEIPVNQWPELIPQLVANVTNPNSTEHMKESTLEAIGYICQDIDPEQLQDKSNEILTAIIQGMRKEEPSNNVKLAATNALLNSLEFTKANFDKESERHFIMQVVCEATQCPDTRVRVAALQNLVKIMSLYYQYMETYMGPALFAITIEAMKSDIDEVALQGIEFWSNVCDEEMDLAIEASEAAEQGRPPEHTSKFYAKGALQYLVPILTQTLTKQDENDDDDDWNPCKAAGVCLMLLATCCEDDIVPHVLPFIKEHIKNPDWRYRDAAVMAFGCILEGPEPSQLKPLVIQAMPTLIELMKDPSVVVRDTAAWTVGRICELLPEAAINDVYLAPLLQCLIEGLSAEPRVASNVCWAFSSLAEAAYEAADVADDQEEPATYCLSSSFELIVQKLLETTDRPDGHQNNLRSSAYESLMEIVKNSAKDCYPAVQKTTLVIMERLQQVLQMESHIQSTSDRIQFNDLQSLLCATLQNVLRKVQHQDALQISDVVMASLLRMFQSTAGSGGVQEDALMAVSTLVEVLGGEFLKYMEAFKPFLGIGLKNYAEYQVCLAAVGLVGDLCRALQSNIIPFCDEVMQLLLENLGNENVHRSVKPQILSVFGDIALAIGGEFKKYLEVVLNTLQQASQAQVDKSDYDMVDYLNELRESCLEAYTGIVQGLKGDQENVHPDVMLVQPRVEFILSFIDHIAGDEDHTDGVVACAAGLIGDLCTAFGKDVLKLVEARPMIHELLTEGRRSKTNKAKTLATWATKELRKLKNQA
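Inhibition scored from the CFP 486 nm/YFP 530 nm FRET ratio 45 min after adding 0.125 microM importin beta to 50 nM Rango biosensor preincubated 5 min with compound (room temperature, PBS with DTT, Tween-20, BSA). No-importin wells as positive control.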
The depositor's hits bear a star; ? = inconclusive; / = not tested or not shown; & = joins results of further samples; [ ] = remark or other dose. This is a subset (hit frequency here may not be typical).

miR-21 FLuc,GLA inh pH 4.5,Rango dissoc inh,Rango-impB inh,SMILES
17%,/,0%,-4.6%,O=C(Nc1ccc(F)cc1F)C1CCCN(c2ncnc3c2nc2n3CCCCC2)C1 (stereo not given)
-3%,-10,/,/,CCCOc1nc2c(c(=O)n(C)c(=O)n2C)n1CC
16%,-7,12%,0.3%,COC(=O)c1[nH]c2ccc(C)cc2c1NC(=O)CN1CCN(Cc2ccccc2)CC1
/,-8&-14,28%,7.3%,CN1CCN(c2nc3cc(C(F)(F)F)ccc3n3cccc23)CC1
-10%,0,-9%,2.9%,O=C(NCc1ccccn1)C(C(=O)c1cccc([N+](=O)[O-])c1)n1cc(Cl)ccc1=O (stereo not given)
-2%,5,-10%,-0.3%,O=C(O)CC1NC(=O)N(C2CCCCC2)C1=O (stereo not given)
-6%,-13,-12%,0.2%,O=C(O)CC(NC(=O)c1ccc2c(c1)OCO2)c1cccc([N+](=O)[O-])c1 (stereo not given)
/,/,-11%,1.3%,CN(CC(=O)Nc1cccc(F)c1)C(=O)C1CCN(C(=O)c2ccc(Cl)cc2)CC1
-1%,-6,-9%,-3.7%,O=C(COc1ccccc1[N+](=O)[O-])OC1CCS(=O)(=O)C1 (stereo not given)
-10%,-7,18%,1.9%,OCCOCCOCCn1c2ccccc2c2ccccc21

miR-21 FLuc,GLA inh pH 4.5,Rango dissoc inh,Rango-impB inh,SMILES
-3%&9%,/,?,4.6%,Cc1cccc(N2CCN(S(=O)(=O)c3c(C)nc4scc(C)n4c3=O)CC2)c1C
-41%,-8,4%,-3.1%,O=[N+]([O-])c1cc(-c2ccc(C(=S)N3CCOCC3)o2)ccc1Cl
-1%,0,0%,-0.6%,COc1ccc(COc2ccc(C3C(S(=O)(=O)c4ccccc4)CON3C)cc2OC)cc1 (stereo not given)
-17%,-2,3%,-0.2%,CCOC(=O)C1=C(N)OC2=C(C(=O)CC(C)(C)C2)C1c1ccc(C)s1 (stereo not given)
0%&10%,/,9%,0.2%,COc1ccc(OC)c(CCNC(=O)c2ccc(CS(=O)Cc3cccc(Cl)c3)o2)c1 (stereo not given)
0%&8%,-4,-3%,-0.2%,COc1ccc(N(C)C(=O)c2oc(=O)c3ccccc3c2-c2ccc(C)cc2)c(OC)c1
-2%,-1,-7%,-1.8%,COCCn1c(C)cc(C2=NNC(=Nc3ccc(Cl)cc3Cl)SC2)c1C
/,/,-29%,-1.9%,CN1CCN(S(=O)(=O)c2ccc(N3CCN(c4ccccc4O)CC3)c([N+](=O)[O-])c2)CC1
16%,-5,-14%,-6.4%,Cc1cc([N+](=O)[O-])nn1CC(=O)Nc1nccs1
2%,0,2%,-4.1%,CCC1(O)c2ccccc2-c2ncccc21 (stereo not given)

miR-21 FLuc,GLA inh pH 4.5,Rango dissoc inh,Rango-impB inh,SMILES
-10%,1,1%,-0.2%,CCOC(=O)c1c(N)sc(C(=O)N2CCCCCC2)c1C
/,/,-7%,1.7%,Cc1ccc(CSCC(=O)N(C)CC(=O)Nc2cccc(F)c2)cc1
12%,-20,10%,1.2%,O=c1oc2ccccc2c(O)c1Cc1cc(Cl)c2cccnc2c1O
/,/,4%,1.1%,[O-]C(=C(C(=S)Nc1cccc2ccccc12)[n+]1ccccc1)c1ccc2c(c1)OCCO2
23%,-5,0%,0.2%,CCOc1ccccc1NC(=S)NCCc1ccccc1
-25%,4,0%,1.2%,Cc1cc(C)nc(NC(=O)CCC2CCCC2)c1
-13%,-7,/,/,O=Nc1c(-c2cccc([N+](=O)[O-])c2)nc2ncccn12
-3%,3,-7%,1.9%,Cc1ccc(C2Nc3ccccc3C(=O)N2CCN2CCNC2=O)cc1 (stereo not given)
-10%,-2,1%,0.3%,COCCCNC(=O)CCSc1ccc(Cl)cc1
-16%,3,-19%,1.0%,Cc1ccnc(NC(=O)COc2ccc(Cl)cc2)n1

miR-21 FLuc,GLA inh pH 4.5,Rango dissoc inh,Rango-impB inh,SMILES
-7%,/,-3%,0.0%,C[C@H](NC(=O)N1CCn2c1nc1ccccc12)C(=O)N1CCCCC1
5%,/,-6%,3.8%,COc1ccc(C)cc1NC(=O)C1CCCN(S(=O)(=O)c2ccc(-n3cnnn3)cc2)C1 (stereo not given)
1%,-2,13%,-0.4%,CCOC(=O)C1(Cc2cccc(F)c2)CCN(Cc2cnc(C)s2)CC1
-2%,/,5%,0.0%,Cc1cccc(N2CCN(S(=O)(=O)c3c(C)[nH]c(C)c3C(=O)N3CCCC3)CC2C)c1 (stereo not given)
-4%,-5,-4%,1.8%,CCCCn1cnc2c1c(=O)n(CC(=O)c1cc(C)n(C)c1C)c(=O)n2CC(C)C
-22%,-2,14%,5.8%,O=C(Nc1ccc(Cl)cc1C(F)(F)F)c1ccc(Cl)cc1
-10%,-3,-2%,0.2%,Cc1cc(C)nc(SCc2cc(=O)c(OC(=O)c3ccc(Br)o3)co2)n1
-1%,3[21.1 µM],-17%,1.9%,O=C(CN1CCCCC1)N1CCN(S(=O)(=O)c2ccccc2)C1
-41%,-4,16%,2.6%,NC(=O)c1c(NC(=O)c2cccnc2Cl)sc2c1CCCC2
3%,3,9%,-0.5%,Cc1ccc(S(=O)(=O)N2C(=O)CCC2C(=O)Nc2ccc3c(c2)OCCO3)cc1 (stereo not given)

Part of the list above, in markdown.
| SMILES | miR-21 FLuc | GLA inh pH 4.5 | Rango dissoc inh | Rango-impB inh |
| --- | --- | --- | --- | --- |
| COc1ccc(C)cc1NC(=O)C1CCCN(S(=O)(=O)c2ccc(-n3cnnn3)cc2)C1 (stereo not given) | 5% | / | -6% | 3.8% |
| CCOC(=O)C1(Cc2cccc(F)c2)CCN(Cc2cnc(C)s2)CC1 | 1% | -2 | 13% | -0.4% |
| Cc1cccc(N2CCN(S(=O)(=O)c3c(C)[nH]c(C)c3C(=O)N3CCCC3)CC2C)c1 (stereo not given) | -2% | / | 5% | 0.0% |
| CCCCn1cnc2c1c(=O)n(CC(=O)c1cc(C)n(C)c1C)c(=O)n2CC(C)C | -4% | -5 | -4% | 1.8% |
| O=C(Nc1ccc(Cl)cc1C(F)(F)F)c1ccc(Cl)cc1 | -22% | -2 | 14% | 5.8% |
| Cc1cc(C)nc(SCc2cc(=O)c(OC(=O)c3ccc(Br)o3)co2)n1 | -10% | -3 | -2% | 0.2% |
| O=C(CN1CCCCC1)N1CCN(S(=O)(=O)c2ccccc2)C1 | -1% | 3[21.1 µM] | -17% | 1.9% |

Next section
miR-21 FLuc,GLA inh pH 4.5,Rango dissoc inh,Rango-impB inh,SMILES
-7%,/,-6%,0.0%,Cc1cc(C)c(S(=O)(=O)c2ccccc2C)c(OCCN(C)C)n1
/,/,4%,2.0%,O=S(=O)(c1ccc(Oc2ccc(Cl)cc2)nc1)N1CCOCC1
/,/,25%,-3.6%,Cc1cccn2c(=O)c(C(=O)NC3CCCCC3C)c(O)nc12 (stereo not given)
-9%,-7,1%,6.7%,Cc1ccccc1C(=O)NN1CCOCC1
-2%,-7,-6%,1.6%,COc1ccc(Nc2cc(C(=O)NCc3ccco3)c3ccccc3n2)c(OC)c1
/,/,-13%,-2.9%,Cc1ccc(OCCNC(=O)C(C)SCC(=O)Nc2ccc(F)cc2)cc1 (stereo not given)
-10%,-6,0%,-3.6%,Cc1ccc(-n2nc(CC#N)c(C#N)c2N)cc1Cl
0%,5,9%,-0.6%,CN(C)C(=S)NC(=O)C12CC3(C)CC(C)(CC(C)(C3)C1)C2
/,/,4%,1.9%,COc1ccc(C(=O)NCC(C)NC(=O)c2ccc(OC)c(Br)c2)cc1Br (stereo not given)
/,/,-3%,-0.2%,CC1CC(C)CN(S(=O)(=O)c2ccc(NC(=O)CCNC(=O)c3ccc([N+](=O)[O-])cc3)cc2)C1 (stereo not given)

miR-21 FLuc,GLA inh pH 4.5,Rango dissoc inh,Rango-impB inh,SMILES
5%,-1,-3%,-2.9%,COc1ccccc1CNC(=S)Nc1cc(C)ccc1C
1%,-3,4%,-2.1%,C=CCNC(=O)c1onc(CSc2ccncc2)c1C(=O)NCC=C
-11%,0,1%,-0.9%,CN(C1CCS(=O)(=O)C1)S(=O)C12CC3CC(CC(C3)C1)C2 (stereo not given)
/,9&-2,11%,-2.5%,Nc1ccc(C(=O)NCC(=O)O)cc1
-5%,5,-4%,-2.9%,OCCC1CN(Cc2c(O)ccc3ccccc23)CCN1CCc1ccccc1 (stereo not given)
-2%,0,-22%,-1.0%,CCCCn1c(CCC(=O)O)nc2c1c(=O)[nH]c(=O)n2CCC
0%,1,-1%,-0.1%,N=c1sccn1CC(=O)NCCc1ccc(Cl)cc1
7%,-3,-4%,0.1%,CCOC(=O)C(=O)N/N=C/c1cccc(Br)c1
-19%,3,2%,3.7%,Cc1[nH]c2ccc(C(=O)OCCN(C)C)cc2c1C
0%,-14,-7%,-0.9%,O=C(COc1ccc([N+](=O)[O-])cc1)N(Cc1ccccc1)Cc1ccccc1

miR-21 FLuc,GLA inh pH 4.5,Rango dissoc inh,Rango-impB inh,SMILES
-9%,-2,-10%,1.7%,COC(=O)c1cc(NC2c3ncccc3C(=O)N2Cc2ccccc2)cc(C(=O)OC)c1 (stereo not given)
-3%,-2,-10%,-0.8%,CCOc1ccc(NC(=O)N2CCC(C(=O)c3ccc(F)cc3)CC2)cc1
-30%,-12,2%,4.2%,O=C(/C=C/c1cccc([N+](=O)[O-])c1)NCCSc1ccccc1
-9%,-13,-2%,-0.3%,O=Cc1cn(CC(=O)N2CCOCC2)c2ccccc12
-4%,-7,-7%,3.8%,COc1ccc(C2C(C#N)=C(N)Oc3cc(C)n(Cc4ccncc4)c(=O)c32)cc1 (stereo not given)
-3%,-27,-10%,0.2%,C=CC[N+](C)(C)CCN1C(=O)C2C(c3ccccc3)C=CC(c3ccccc3)C2C1=O (stereo not given)
-3%,10,-6%,4.5%,COC(=O)C[N+](C)(C)C/C=C\c1ccccc1
28%,1,-19%,-2.5%,O=C(Nc1cccc(O)c1)c1noc2c1CCCCC2
/,/,-1%,0.7%,O=C(COc1ccccc1Cl)N1CCNC1=O
1%,0,/,/,Cc1ccc(NC(=O)COC(=O)c2ccc3c(c2)NC(=O)C2CCCN32)cc1C (stereo not given)

miR-21 FLuc,GLA inh pH 4.5,Rango dissoc inh,Rango-impB inh,SMILES
1%,-3,-7%,-0.2%,O=C(COC(=O)[C@@H]1CCCN1S(=O)(=O)c1ccccc1F)c1ccccc1
-4%,/,0%,-2.1%,COc1ccc(C)cc1NC(=O)CSc1ccc(-c2ccco2)nn1
/,/,-2%,-0.6%,CC1(C)CCC[C@@]2(C)CC=C(C(=O)O)[C@@H]3C[C@]312
-5%,/,-5%,5.0%,COc1ccc(CC2C(=O)OC(C)(C)OC2=O)c(Cl)c1OC
-29%,-10,1%,5.6%,Cc1cccc(/C=C/c2nc3ccccc3c(=O)[nH]2)c1
-17%,/,?,?,CCc1ccc(-c2cc(C)no2)cc1S(=O)(=O)NCCc1ccccc1
-34%,/,-12%,-3.2%,CCC(=O)NCCc1nc2cc(NC(=O)Nc3ccccc3)ccc2n1C
1%,-2,1%,-2.4%,CC1CCN(S(=O)(=O)c2cccc(C(=O)N(C)C3CCS(=O)(=O)C3)c2)CC1 (stereo not given)
-9%,-20,-11%,-2.9%,O=C(COC(=O)c1ccc2ncsc2c1)Nc1ncc(Cl)cc1Cl
-20%,11,0%,0.2%,COCCn1c(SCC(=O)Nc2ccc3[nH]c(=O)[nH]c3c2)nc2ccccc2c1=O

Two records drawn at random from the list so far:
miR-21 FLuc,GLA inh pH 4.5,Rango dissoc inh,Rango-impB inh,SMILES
-2%,-7,-6%,1.6%,COc1ccc(Nc2cc(C(=O)NCc3ccco3)c3ccccc3n2)c(OC)c1
-25%,4,0%,1.2%,Cc1cc(C)nc(NC(=O)CCC2CCCC2)c1

Continued:
miR-21 FLuc,GLA inh pH 4.5,Rango dissoc inh,Rango-impB inh,SMILES
-7%,-3,6%,-3.6%,COc1ccc(C2CC(c3cccs3)Nc3nnnn32)cc1 (stereo not given)
-67%,/,0%,0.3%,COc1ccc(OCc2cc(C(=O)N3CCCC(O)C3)no2)c2ccccc12 (stereo not given)
-1%,-9,?,?,COc1ccc(-c2nc(/C=C3\C(C)=Nc4ccccc43)c(O)o2)cc1
-15%,-2,13%,?,CSc1nc2c(c(=O)n1-c1ccc(F)cc1)SCC2
